KCNQ2 enhance: potentiators of rat KCNQ2 potassium channel | Potassium voltage-gated channel subfamily KQT member 2 (Rattus norvegicus), O88943 | CHO-K1 KCNQ2, FluxOR thallium flux fluorescence; stronger effect = higher value | B-score at 10 µM | actives 0.54% (n = 310,000) | AID 2239, 2010;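 active = fluorescence ratio B-score at least 3 SD of library B-scores, with initial fluorescence B-score within 3 SD, cut at about 5.3 in these data; same plate scores as AID 2156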;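 note: B-score of peak minus minimum over baseline fluorescence ratio after K+ and Tl+ stimulus; positive B-score means potentiation of KCNQ2 with more thallium influx and brighter signal; only the inactives scoring about 0 or higher are listed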
Target sequence (O88943 whole entry, looked up): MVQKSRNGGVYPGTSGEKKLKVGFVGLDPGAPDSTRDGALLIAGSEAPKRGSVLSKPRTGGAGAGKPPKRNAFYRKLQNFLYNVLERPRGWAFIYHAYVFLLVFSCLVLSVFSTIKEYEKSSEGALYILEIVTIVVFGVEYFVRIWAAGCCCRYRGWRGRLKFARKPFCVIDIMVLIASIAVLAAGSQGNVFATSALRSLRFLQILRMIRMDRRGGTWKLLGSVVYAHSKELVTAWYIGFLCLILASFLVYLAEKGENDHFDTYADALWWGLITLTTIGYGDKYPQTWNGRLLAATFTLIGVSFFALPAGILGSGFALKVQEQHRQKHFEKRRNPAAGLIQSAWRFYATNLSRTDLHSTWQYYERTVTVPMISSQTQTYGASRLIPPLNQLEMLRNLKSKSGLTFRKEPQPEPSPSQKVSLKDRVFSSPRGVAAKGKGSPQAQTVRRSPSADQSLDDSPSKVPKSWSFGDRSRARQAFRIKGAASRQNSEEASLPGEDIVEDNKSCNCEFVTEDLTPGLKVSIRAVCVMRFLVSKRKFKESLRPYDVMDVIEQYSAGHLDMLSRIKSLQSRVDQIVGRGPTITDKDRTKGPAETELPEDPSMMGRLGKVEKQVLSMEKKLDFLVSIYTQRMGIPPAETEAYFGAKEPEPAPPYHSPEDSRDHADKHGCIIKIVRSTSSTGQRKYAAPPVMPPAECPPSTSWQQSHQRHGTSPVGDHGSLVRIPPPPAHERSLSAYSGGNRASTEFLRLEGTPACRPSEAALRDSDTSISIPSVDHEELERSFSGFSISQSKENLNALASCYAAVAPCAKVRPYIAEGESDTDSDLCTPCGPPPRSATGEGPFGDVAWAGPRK
KCNQ2 enhance baseline: further read-out of KCNQ2 enhance, marked with its call; B-score; compound at 10 µM; measured here: initial fluorescence intensity artifact check;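 brightness before thallium and not channel activity; 0 = typical well and far values either way flag optical interference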
Starred values were filed as active, the others as inactive. Only part of the results is shown; the hit share may differ from the screen's.

SMILES	KCNQ2 enhance	KCNQ2 enhance baseline
CC(=O)c1ccc(NC(=S)N2CCC(O)CC2)cc1	1.3	0.39
COc1ccc(C2=NS(=O)(=O)N(C)C(C(=O)N3CCCCC3)=C2)cc1	1.8	-0.18
C=C(C)Cn1c(SCC#N)nc2ccccc2c1=O	0.48	0.91
COCC(C)NC(=O)NC(=O)c1ccc(Cl)cc1 (configuration not stated)	2.8	-1.4
CC1(C)CC(=O)C=C(Nc2ccccc2NC(=O)c2cnccn2)C1	0.9	1.2
Nc1nc(NCCO)nc(N2CCCCCC2)c1[N+](=O)[O-]	0.49	-0.31
CSc1nc(N)nc(SCC(=O)c2ccc(C)cc2)c1C#N	2.5	0.39
Cc1ccc(S(=O)(=O)N(C)c2ccc(C(=O)NCc3cccnc3)cc2)cc1	0.37	1
CCCCOc1ccc(N(CC(=O)NCc2ccco2)C(=O)CCC(=O)Nc2nccs2)cc1	0.67	0.25
CCCNC(=O)NC1CCCCCCC1	0.67	-1.2
NC(=O)CC(NC(=O)Cc1ccc(Br)cc1)c1ccc(NCCN2CCOCC2)c([N+](=O)[O-])c1 (configuration not stated)	0.51	-2.9
Cc1cc(N2CCN(C)CC2)nc2ccc(NC(=S)NCCCN3CCN(C)CC3)cc12	2.6	1.4
COc1ccccc1C(=O)NCCC(=O)Nc1cccnc1	1.1	0.47
Cc1ccc2[nH]c3nc(N/N=C/c4cccc(O)c4)nnc3c2c1	0.16	0.11
C=CCNC(=O)c1onc(CSc2ccc(OC)cc2)c1C(=O)O	0.04	-1.3
CC(=O)Nc1c(C)ccc2nsnc12	1.9	-0.22
Cc1cc(C)c(S(=O)(=O)c2ccccc2Cl)c(=O)[nH]1	0.89	1.5
Cc1cc2occ(CC(=O)O)c2cc1C	0.71	-0.34
Cc1cccc(C(=O)N[C@H](C(=O)Nc2nnc(C3CC3)s2)C(C)C)c1	0.29	1.1
CC(=O)[C@@H]1[C@@H]2C(=O)N(C3CCCCC3)C(=O)[C@@H]2C2c3ccccc3C=CN21 (some centres not stated)	1.6	-0.5
CC(=O)c1c(C)c[nH]c1C	0.75	1
Cc1cccc(NC(=O)Nc2ccc(Cl)c(Cl)c2)n1	0.03	-0.8
CNc1oc(-c2ccco2)nc1C#N	0.71	-0.51
O=C(N[C@@H](CO)C(=O)NCc1ccccc1)c1ccc(C(F)(F)F)cc1	0.88	1.4
CCc1c(C(=O)N/N=C/c2sccc2C)nnn1-c1nonc1N	2.4	0.86
CC[C@H](C)[C@H](NC(N)=O)C(=O)NCCc1ccc(Cl)cc1	1.4	-0.67
Cc1ccc(C(=O)N2NC(c3ccc(F)cc3)C3C(=O)N(c4ccc(C)c(C)c4)C(=O)C32)cc1 (configuration not stated)	0.46	-0.74
Cn1cnnc1SC/C(O)=C(\C#N)c1nc2ccccc2[nH]1	1.4	0.14
COc1ccc(/C(O)=C2/C(=O)C(=O)N(CCN(C)C)C2c2ccc(F)cc2)cc1Cl (configuration not stated)	0.3	-0.97
CCOC(=O)C1=C(CN2CCSCC2)NC(=O)NC1c1cc(C)ccc1C (configuration not stated)	0.64	-0.61
O=C(NCC(=O)N1CCOCC1)c1ccc(Br)cc1	0.17	0
Nc1ccccc1C(=O)N(Cc1ccccc1)Cc1ccccc1	0.84	0.82
CCOC(=O)N1CCC(NC(=O)Cn2cc3c(n2)CCCC3)CC1	0.94	-0.78
O=C(c1cc(-c2ccccc2Cl)on1)N1CCN(C(=O)c2ccco2)CC1	0.19	0.2
COc1ccc(C(=O)n2cnc3ccccc32)cc1[N+](=O)[O-]	0.04	0
O=C(Nc1ccccc1)/C(=C/c1ccc(F)cc1)NC(=O)c1ccco1	0.52	0.91
CCOc1ccc2c(c1)c1nnc(SCC(=O)NC3CC3)nc1n2C	2.4	-0.02
O=C(NCC(c1ccco1)N1CCN(c2ccc(F)cc2)CC1)c1cccs1 (configuration not stated)	0.02	-1.7
CCOc1ccc(-n2c(=O)[nH]cc(C(=O)N3CCc4ccccc43)c2=O)cc1	0.31	-0.12
O=C1CCC(c2ccccc2)=NN1Cc1c(F)cccc1Cl	0.35	2.1
CCN(CC)Cc1c(C(=O)N/N=C/c2ccc(OCc3ccccc3C)cc2)nnn1-c1nonc1N	0.4	-0.34
CN(CC(=O)Nc1ccc(F)c(F)c1)S(=O)(=O)c1cccs1	0.05	1.5
CCC(=O)Nc1ccc(C(=O)CSc2nc(N)cc(N)n2)cc1	1.1	0.4
CS(=O)(=O)N(Cc1ccccc1Cl)c1ccc(C(=O)NCc2ccccn2)cc1	1.2	1.8
Cc1ccc(C(=O)c2c3ccc([N+](=O)[O-])cc3[n+]([O-])n2CCCC(N)=O)cc1	0.56	1.4
C[C@H]1CCC[C@]2(O[C@H](CCO)C[C@@H](O)[C@@H]2O)O1	0.33	0.91
CCCCN(C)CCCNC(=O)c1cc(=O)[nH]c2ccc(S(=O)(=O)N3CCCCC3C)cc12 (configuration not stated)	0.18	0
COc1cccc(CCC(=O)N2CCC(n3nccc3NC(=O)CC(C)C)CC2)c1	0.46	-3.6
O=c1cc(CN2CCOCC2)c2c(ccc3ccccc32)o1	0.76	0.76
COc1ccc(CC(=O)n2[nH]c(=O)c3ccccc3c2=O)cc1OC	1.1	0.45
CCn1nc(C)c(NC(=O)CCCSc2nc(-c3ccco3)cc(C(F)(F)F)n2)c1C	5.2	2
CCc1nnc(NS(=O)(=O)c2ccc(NC(=O)c3ccc(S(=O)(=O)N(CC)CC)cc3)cc2)s1	0.29	-0.82
CCN(CC(=O)NCc1cccs1)c1ccc(S(=O)(=O)N2CCCC2)cn1	0.52	2
C=CCn1c(SCC(=O)c2c(N)n(CCC)c(=O)n(C)c2=O)nnc1-c1ccncc1	0.15	-0.02
C/C(=N\Nc1ccc(C(=O)O)cc1)c1ccc(-n2ccnc2)cc1	0.68	0.6
COc1cccc(OC)c1CNC(=O)CCSCc1ccccc1F	0.66	-0.27
NC(=O)CSc1nc(N)c2c3c(sc2n1)CCCCC3	0.96	-0.24
COc1ccc(CCNc2nc3ccccc3n3cnnc23)cc1OC	0.26	0.52
CSc1ncccc1C(=O)OCC(=O)NC(N)=O	1.1	-0.23
Clc1ccc(-c2csc(N3CCOCC3)n2)cc1	0.9	-1.4
(cont.)
SMILES	KCNQ2 enhance	KCNQ2 enhance baseline
COc1ccccc1N1CCN(C(=S)NC(=O)/C=C/c2ccccc2)CC1	0.38	1.5
CC1=Nc2ccccc2/C1=C\c1nc(-c2ccccc2)oc1O	0.9	-3.8
CCOc1ccc(NC(=O)CN2C(=O)COc3ccccc32)cc1	0.05	1.4
CCOC(=O)C1CCCN(C(=O)CCNS(=O)(=O)c2ccc3c(c2)CCC(=O)N3)C1 (configuration not stated)	0.72	0.56
COc1ccc(C(=O)NC2CCCc3ccccc32)cc1S(=O)(=O)N1CCOCC1 (configuration not stated)	0.5	0.32
COc1cc(C(=O)Nc2ccc(N3CCN(C(=O)c4ccc(C)cc4)CC3)cc2)cc(OC)c1OC	0.07	-2.6
CCOC(=O)COn1c(=O)c[n+]([O-])c2ccccc21	0.9	-0.53
O=C1CCC(C(=O)N2CCCC2)CN1Cc1cccc(C(F)(F)F)c1 (configuration not stated)	0.62	0.17
Cc1nn(C)cc1C(C)NC(=O)c1cc(COc2ccc(F)c(F)c2)on1 (configuration not stated)	0.8	0.54
OCCC#Cc1ccc(CN2CCN(C3CCCCC3)C(CCO)C2)cc1 (configuration not stated)	0.4	-1.2
Cc1cccc(N(C(=O)CS(=O)CC(=O)Nc2ccc3c(c2)OCO3)C(C)C(=O)NC2CCCC2)c1C (configuration not stated)	0.56	-0.66
CN(CC(=O)Nc1cccc(F)c1)C(=O)CCNC(=O)c1ccc(Br)cc1	0.14	-3.1
Cc1csc(NC(=O)Cc2nn(C)c(=O)c3ccccc23)n1	0.74	-0.09
O=C(NCc1ccccc1Cl)c1ccc(S(=O)(=O)Nc2cccc(C(F)(F)F)c2)cc1	0.03	-1.2
CC(C)C(C)NC(=O)Cn1cnc2c(oc3ccccc32)c1=O (configuration not stated)	0.67	-0.61
Cc1ccsc1C(=O)OCC(=O)NCc1ccc2c(c1)OCO2	0.17	0.62
Cn1c(NCc2cc(Br)ccc2O)nc2ccccc21	0.81	-1.2
CCc1nnc(NC(=O)CSc2nnc(C3CC3)n2C)s1	0.16	-0.31
Cc1c(C(=O)NCC2CCCO2)oc2ccc(S(=O)(=O)N3CCCC3)cc12 (configuration not stated)	2.8	-0.03
O=C1CC(c2ccccc2Oc2cccc(Cl)c2)C(n2cncn2)C(=O)C1C1NCCc2ccccc21 (configuration not stated)	0.02	0.88
C=CCSc1nc2c(c(=O)[nH]c(=O)n2C)n1C/C=C(/C)Cl	0.97	0.21
O=C(CCC(=O)OCc1ccc([N+](=O)[O-])cc1)Nc1ccccc1Cl	0.46	0.35
CCN(CC)C(=O)C12CC3CC(CC(Cl)(C3)C1)C2	0.13	-2.8
Cc1[nH]c2ccc(C(=O)NCCCN3CCCC3)cc2c1C	1.2	2

Entries listed so far that have bromine:
SMILES	KCNQ2 enhance	KCNQ2 enhance baseline
NC(=O)CC(NC(=O)Cc1ccc(Br)cc1)c1ccc(NCCN2CCOCC2)c([N+](=O)[O-])c1 (configuration not stated)	0.51	-2.9
O=C(NCC(=O)N1CCOCC1)c1ccc(Br)cc1	0.17	0
CN(CC(=O)Nc1cccc(F)c1)C(=O)CCNC(=O)c1ccc(Br)cc1	0.14	-3.1
Cn1c(NCc2cc(Br)ccc2O)nc2ccccc21	0.81	-1.2

More structures follow.
SMILES	KCNQ2 enhance	KCNQ2 enhance baseline
O=C1NC(c2cccc(Br)c2)=N/C1=C\c1ccco1	0.02	0.74
NC(=S)n1[nH]c(-c2ccc([N+](=O)[O-])cc2)c(N=Nc2cccc(Cl)c2)c1=O	3.8	-0.12
CCNc1nnc(-c2ccccc2OC)s1	0.24	0.05
CCN(CC)C(=O)Cn1cc(C(=O)C(=O)NCC2COc3ccccc3O2)c2ccccc21 (configuration not stated)	0.17	-0.02
COc1cccc(Nc2nc(-c3cccc(N4C(=O)c5ccccc5C4=O)c3)cs2)c1	1	-0.97
CCC1(C)Cc2nc3[nH]c(=S)n(-c4ccccc4C)c(=O)c3cc2CO1 (configuration not stated)	0.96	1.1
CCN(C(C)=O)c1ccc(Oc2nc(OC)cc(OC)n2)cc1	0.28	-0.32
CN1CCc2c(sc3nc(SCC(=O)N4CCCCC4)n(-c4ccccc4)c(=O)c23)C1	0.07	-2.8
O=C(Nc1cc(Cl)ccc1N1CCOCC1)c1ccc(N2CCCC2=O)cc1	2.9	0.12
O=C(NCc1cccs1)C(=O)c1cn(CC(=O)N2CCCC2)c2ccccc12	0.02	1.5
CCOc1ccc(S(=O)(=O)NCCC(=O)NCC2(N3CCCCC3)CCCCC2)cc1	0.24	-0.14
NC(=S)NN=C(c1ccccc1)c1ccccc1	1.1	1.2
COc1ccc2nc(C)c(C(=O)NN)cc2c1	0.73	0.97
COc1ccc(C(=O)Oc2cccc(Nc3ncnc4ccccc34)c2)cc1OC	0.4	-0.5
CN1C(=O)NC(c2ccccc2)C2=C1CN(CCc1ccccc1)C2=O (configuration not stated)	0.12	2.4
Cc1ccc(NS(=O)(=O)c2ccc(Br)s2)nc1	0.31	0.09
Nc1nnc(CSCc2ccccc2Cl)s1	0.02	-0.52
O=C(O)CC(NC(=O)COc1ccc(Cl)cc1Cl)C(=O)O (configuration not stated)	0.85	2.5
Clc1ccc(N2CCN(c3ccnc(Cl)n3)CC2)cc1	0.17	-1.6
Cc1ccc(NC(=O)Cn2c(C)cc(C)c(C#N)c2=O)c(Cl)c1	1.1	0.83
CCOC(=O)c1nnn(-c2nonc2N)c1CSc1ccccc1	0.21	-1.7
Cc1cc(C)cc(-n2ncc3c2CCCC3NC(=O)CCCn2cncn2)c1 (configuration not stated)	0.86	-0.55
O=C(Cc1ccc(Cl)cc1)NC1CCS(=O)(=O)C1 (configuration not stated)	0.29	0.25
COc1ccc(OCc2nnc(SCC(=O)N3CCCCC3)o2)cc1	0.4	-0.34
CCC(C)N(C(=O)CSc1nnc(C)n1C)C1CCS(=O)(=O)C1 (configuration not stated)	0.03	-1.2
Cn1nnc2c(sc3nc(N4CCOCC4)c4c(c32)CCCC4)c1=O	1.1	0.03
CCC(NS(=O)(=O)c1c(C)[nH]c(=O)[nH]c1=O)C12CC3CC(CC(C3)C1)C2 (configuration not stated)	1.6	-2
O=C(Nc1ccc(NC(=O)c2ccccc2Br)cc1)c1ccccc1	0.07	0.59
CCOc1ccc2c(c1)sc(=NC(=O)C1CC1)n2C	0.05	0.17
COc1ccc(OC)c(/C=C2\SC(=S)N(NS(=O)(=O)c3ccc(C)cc3)C2=O)c1	0.34	0.83
CCOC(=O)N1CCC(NC(=O)C2CCCN(C(=O)N3CCOc4ccccc43)C2)CC1 (configuration not stated)	0.17	-1.6
CCCS(=O)(=O)N1CCC(C(=O)NCCN(C)Cc2ccccc2)CC1	0.03	1.5
O=C(CNC(=O)c1cccnc1)N/N=C/c1cc(Br)c(O)c(Br)c1	0.64	-1.5
Cc1cccc2c(C(=O)O)cc(-c3cccnc3)nc12	0.01	0.29

By substructure: the entries above with a COOH group
SMILES	KCNQ2 enhance	KCNQ2 enhance baseline
C=CCNC(=O)c1onc(CSc2ccc(OC)cc2)c1C(=O)O	0.04	-1.3
Cc1cc2occ(CC(=O)O)c2cc1C	0.71	-0.34
C/C(=N\Nc1ccc(C(=O)O)cc1)c1ccc(-n2ccnc2)cc1	0.68	0.6
O=C(O)CC(NC(=O)COc1ccc(Cl)cc1Cl)C(=O)O (configuration not stated)	0.85	2.5
Cc1cccc2c(C(=O)O)cc(-c3cccnc3)nc12	0.01	0.29

Screening results (PubChem BioAssay)
